Source: PubChem BioAssay
CSC inhib – cancer stem cell inhibition; cancer stem cell-like cells viability, luminescence; inhibition, % at 7.5 µM; hit rate 1.1% among 300,000;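 active means mean at 75% or more and at least half the replicates too; inconclusive means mean and replicates disagree; tested in HMLE shEcad cells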;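 further: 0% = median of negative and 100% = median of positive control wells; the first replicate is given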
PABP FP inh – PABP-poly(A) binding inhibition; PABP-poly(A) RNA binding, fluorescence polarization; inhibition, % at 35 µM; hit rate 1% among 290,000; P11940; AID 2014;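 active means 50% or more with normal probe brightness, or confirmed in later tests; inconclusive means above 50% with abnormal brightness, or retests that disagree; inactive means below 50% or failed in later tests; about a fifth of its hits are not listed in these tables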;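 further: calls also rest on retests at 20 µM and on dose response follow-up; controls were probe without protein and protein plus probe with vehicle; some compounds called inactive have numbers as strong as hits; many hits fall short of the cut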
Target sequence (P11940 whole entry, looked up): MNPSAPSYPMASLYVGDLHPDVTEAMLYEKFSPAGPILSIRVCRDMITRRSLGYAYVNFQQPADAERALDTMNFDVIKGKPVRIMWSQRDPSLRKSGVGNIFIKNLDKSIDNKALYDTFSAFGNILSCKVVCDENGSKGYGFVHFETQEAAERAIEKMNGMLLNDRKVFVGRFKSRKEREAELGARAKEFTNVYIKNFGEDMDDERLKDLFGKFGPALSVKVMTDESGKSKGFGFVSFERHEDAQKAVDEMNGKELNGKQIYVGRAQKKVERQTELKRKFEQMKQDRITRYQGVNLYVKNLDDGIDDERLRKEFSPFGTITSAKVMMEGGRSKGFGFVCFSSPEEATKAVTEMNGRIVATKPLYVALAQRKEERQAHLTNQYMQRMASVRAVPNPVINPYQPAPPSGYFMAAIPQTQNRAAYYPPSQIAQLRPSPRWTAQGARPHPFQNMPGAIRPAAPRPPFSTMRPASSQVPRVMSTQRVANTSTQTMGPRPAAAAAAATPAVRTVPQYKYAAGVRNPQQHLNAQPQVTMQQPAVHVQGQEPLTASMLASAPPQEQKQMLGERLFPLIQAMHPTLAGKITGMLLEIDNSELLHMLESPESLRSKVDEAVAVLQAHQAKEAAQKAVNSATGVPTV
Yeast UUG start – alters start codon recognition fidelity in yeast | S. cerevisiae UUG-firefly luciferase reporter, luminescence/redox ratio | activity score, % at 18.7 µM | hit rate 0.13% among 350,000 | AID 602363;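 active means replicate mean at a twofold rise or more, about +100% in these data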;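 further: firefly luciferase made from a UUG start codon reports start codon fidelity; reporter light over untreated wells divided by growth signal over untreated wells; some hits fall short of that in this replicate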
Env fusion inh – inhibitors of HIV Env-mediated cell fusion. HeLa-JRFL Env/CEM21 cell fusion, luciferase. inhibition, % at 12.3 µM. hit rate 1.1% among 360,000;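 active means mean replicate inhibition score of at least 50 and every replicate individually at or above 50; inconclusive means only one of the two criteria met; inactive means mean below 50 and not all replicates reaching 50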;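 further: 0% = plate neutral controls and 100% = maraviroc near 300 nM; one replicate is shown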
MT1-MMP act inh – MT1-MMP (human) activation inhibition; P50281; HT1080 RFP-PRO-GFP cells, GFP/RFP ratio fluorescence, overnight; percent of plate control window, DMSO zero; GFP/RFP ratio change, % at 20 µM; hit rate 0.061% among 360,000;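 active means GFP/RFP ratio change of at least 30% with cell ATP level not reduced by more than half and red fluorescence within 50% of control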; further: strong numbers were not always called active
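Test system: HT1080 RFP-PRO-GFP cells; Benchmarks: DMSO and RFP-L50D-GFP cell wells; Timing: cells overnight before dosing, compound overnight, 37 °C, 5% CO2; Compound: one 20 µM compound dose with 1% DMSO; Read-out: GFP/RFP fluorescence ratio.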
Rce1 inh – blocks yeast Ras-converting enzyme. calls only. yeast membranes, quenched prenylated peptide cleavage fluorescence. hit rate 0.27% among 290,000. AID 2563. Q03530;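 active means fall in fluorescence gain of 50% or more versus controls, with final raw signal at or below 3038400; inconclusive means same 50% fall but final raw signal above 3038400; inactive means fall in fluorescence gain under 50%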;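 further: plate controls were neutral control wells for no effect and wells lacking membranes for full effect; tested at 10 µM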
Target sequence (Q03530 whole entry, looked up): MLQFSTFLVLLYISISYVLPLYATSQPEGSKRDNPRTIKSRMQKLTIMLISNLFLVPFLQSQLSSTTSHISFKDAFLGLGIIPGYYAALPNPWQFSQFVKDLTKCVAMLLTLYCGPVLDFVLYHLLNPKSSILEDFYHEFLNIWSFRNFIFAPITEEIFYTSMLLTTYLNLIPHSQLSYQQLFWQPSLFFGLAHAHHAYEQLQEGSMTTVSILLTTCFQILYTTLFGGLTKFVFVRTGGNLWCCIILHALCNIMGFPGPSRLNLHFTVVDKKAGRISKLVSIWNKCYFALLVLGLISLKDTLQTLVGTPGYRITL
eIF4H FP inh – inhibitors of RNA binding by human eIF4H; Q15056; inhibition, % at 35 µM; hit rate 0.94% among 290,000; eIF4H fluorescence polarization binding assay;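 active means 50% or more with normal probe brightness, or confirmed in later tests; inconclusive means above 50% with abnormal brightness, or retests that disagree; inactive means below 50% or failed in later tests; about a fifth of its hits are not listed in these tables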;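 further: calls also rest on retests at 20 µM and on dose response follow-up; 0% = protein and probe with vehicle and 100% = probe without protein; strong numbers were not always called active; many hits fall short of the cut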
PABP FP inh retest – further read-out of PABP FP inh, marked with its call; inhibition, %; compound at 20 µM; confirmation repeats;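 mean of two retest wells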
MT1-MMP act inh RFP – also measured in MT1-MMP act inh; calls as there; RFP signal change, %; measured here: RFP expression control read;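 0 = vehicle wells; hits needed this value within 50% of zero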
Starred values were filed as active, the others as inactive; i = inactive; ? = inconclusive; nt = no result given; & = joins results of further samples. Some of the compounds tested, so the mix of outcomes need not match the whole.

SMILES	CSC inhib	PABP FP inh	Yeast UUG start	Env fusion inh	MT1-MMP act inh	MT1-MMP act inh RFP	Rce1 inh	eIF4H FP inh	others
CC1COC2C(O1)N(S(C)(=O)=O)CCN2S(C)(=O)=O (stereo not given)	-9	-1	nt	nt	0	1	i	-3
O=C(c1ccccc1)c1ccc(N2CCN(C(=O)c3cccc(F)c3F)CC2)c(F)c1	-6	-2	-8	15	8	-5	i	-2
Cn1c2ccccc2c2ncn(Cc3ccco3)c(=O)c21	3	7	-6	-60	6	0	i	-4
COc1ccccc1N1CCN(C2CC(=O)N(c3cccc(Br)c3)C2=O)CC1 (stereo not given)	-8	10	-10	15	2	2	i	0
C/C(N)=C(/C#N)C(=O)CSc1nnc(Nc2cccc(C)c2C)s1	1	-2	-23&-9	-22&-51	1&-3	-1&-6	i	-3
O=C(N[C@@H](Cc1ccc(Br)cc1)C(=O)O)OCC1c2ccccc2-c2ccccc21	22	-1	-14	-18	3	5	i	11
CCN1CCN(C(=O)CS(=O)(=O)Cc2nc(-c3cccc(OC)c3)oc2C)CC1	4	3	nt	4	0	2	i	-4
CC(=O)Nc1cccc(-c2ccnc3c2CC(C(=O)NCc2cccc(Cl)c2)O3)c1 (stereo not given)	nt	nt	-1	-5	-2	-15	nt	nt
CCS(=O)(=O)/N=C(\N)c1ccccc1	16	-6	-9	nt	7	0	i	-12
Cc1ccc(NC(=O)CN(C)C(=O)c2ccc(Cl)c([N+](=O)[O-])c2)cc1	-8	-10	nt	8	5	6	i	-11
C=CCn1c(SCC(=O)Nc2ccc(C(=O)OCC)cc2)nnc1-c1cccs1	-4	-4	3	nt	-5	-5	i	-5
CCN(CC)CC#CC(O)(c1ccccc1)c1ccccc1	29	-14	nt	8	1	3	nt	-7
COc1ccc(S(=O)(=O)c2cnc3ccc(OC)cc3c2N2CCC3(CC2)OCCO3)cc1	13	32	3	11	-6	-7	i	-4
Cc1ccccc1NC(=O)C(C)OC(=O)CNS(=O)(=O)c1ccc(C#N)cc1 (stereo not given)	2	nt	nt	-5	1	2	i	nt
CC(=O)Nc1cccc(C(=O)N/N=C/c2c[nH]c3ccccc23)c1	-5	2	-3	1	-2	4	i	2
COC(=O)/C(C#N)=C/c1cc(C)sc1C	-9	-3	-3	13	-2	-4	i	5
N=c1sccn1CC(=O)Nc1cccc(S(=O)(=O)N2CCCCCC2)c1	1	-1	-17	2	0	-6	i	-26
c1ccc(OCCOc2ncnc3ccccc23)cc1	-8	0	-15	nt	-2	-1	i	1
CCOc1ccc(NC(=O)CN(C)C(=O)c2nc3nc(C)cc(C)n3n2)cc1OCC	-2	nt	-15	-5	2	1	nt	nt
O=C(NC(=S)Nc1ccccc1Br)C1CCC1	-8	-3	-19	-34	-2	-4	i	-9
CC(=O)Nc1ccc(NC(=O)c2c([N+](=O)[O-])c(C(C)(C)C)nn2C)cc1	-5	2	nt	10	0	0	i	-5
Cc1ccc(C(C)NC(=O)/C(C#N)=C\c2c(C)[nH]c3ccccc23)cc1 (stereo not given)	1	6	4	9	0	5	nt	-2
COc1ccc(/C=C/C(=O)c2ccccc2O)cc1	10	2	-10	nt	1	0	i	-5
CCOc1ccc(C(c2nnnn2Cc2ccccc2)N2CCN(C(=O)c3ccco3)CC2)cc1 (stereo not given)	-3	nt	-11	nt	1	1	i	nt
CC(C)C[C@H](NC(=O)c1[nH]cnc1C(=O)Nc1ccccc1)C(=O)OC(C)(C)C	-15	-3	-8	45	-33	-32	i	4

Continued.
SMILES	CSC inhib	PABP FP inh	Yeast UUG start	Env fusion inh	MT1-MMP act inh	MT1-MMP act inh RFP	Rce1 inh	eIF4H FP inh	others
COc1ccc(O)c(/C=N/N=C/c2cccc([N+](=O)[O-])c2)c1	-5	-2	-3	1	9	-1	i	-4
Cc1ccc(C(=O)ONc2ccc(N=O)cc2)cc1	nt	-6	-58	nt	1	3	i	8
COC(=O)c1ccc(C(=O)OC)c(NC(=S)N2CCN(c3ccccn3)CC2)c1	7	4	-6	-5	-3	-2	i	2
N/C(CN1CCCC1=O)=N\OC(=O)c1ccc(Cl)cc1	-4	22	5	-21	2	2	i	-8
CCN(CC)CCNC(=O)c1ccc(Sc2ccc(Cl)cc2)c(NC(C)=O)c1	53	-6	nt	3	2	2	i	1
O=C(Cc1ccc([N+](=O)[O-])cc1)c1c(O)cc(O)cc1O	8	5	7	-4	8	2	i	0
CCCn1nnc(NC(=O)/C=C/c2ccco2)n1	-6	5	nt	6	0	0	i	-4
COc1ccc(C2=NN(C(=O)CCC(=O)O)C(c3ccc(OC)cc3)C2)cc1 (stereo not given)	-3	8	-15	-2	-2	3	i	-1
Cc1ccc(Cc2cnc(NC(=O)/C(C#N)=C/c3ccc(-c4cccc([N+](=O)[O-])c4)o3)s2)cc1	-12	-8	-13	nt	-10	-26	i	-10
Cc1ccccc1CS(=O)(=O)CCC(=O)NCCN1CCN(c2cccc(Cl)c2)CC1	nt	-11	nt	41	7	-6	i	0
NNC(=O)CNC(c1ccccc1)c1cc(Br)ccc1NC(=O)c1ccc(Br)cc1 (stereo not given)	nt	-1	-10	-90	-2	-10	i	-6
Cn1nc(C(=O)OCc2ccccc2F)c2ccccc2c1=O	2	54	nt	36	-2	-12	i	?	PABP FP inh retest=-3
Cn1nc(C(=O)Nc2cccc(S(N)(=O)=O)c2)c2ccccc2c1=O	16	-20	-9	0	3	2	i	2
COc1cccc(OC)c1C(=O)NC(=S)NNC(=O)[C@H]1C[C@@H]1c1ccccc1	nt	-1	-37	3	2	9	i	24
COc1cccc(NC(=O)CCN2C(=O)c3ccccc3S2(=O)=O)c1	0	-1	-9	nt	6	4	i	-7
O=C1CCC[C@@H]2Cc3nc4ccc(O)cc4cc3[C@@H]3CCN1[C@H]23	nt	nt	-5	-5	7	7	nt	nt
CC(C)(C)C1CCC(=O)N(CCC#N)CC1 (stereo not given)	-13	6	0	-13	-5	6	i	-8
CCC(C)NCCOCCSc1ccc(Cl)cc1 (stereo not given)	18	7	-12	6	-2	0	i	-3
COc1ccc(N2CCN(C(=O)CCNC(=O)Cn3ccc4ccccc4c3=O)CC2)cc1	-3	-9	nt	7	1	-3	i	-1
Clc1ccc(C2CC(c3cccs3)n3ncnc3N2)cc1Cl (stereo not given)	-10	-15	-22	92*	-7	-3	i	-15
CSc1cccc(NC(=O)C2CCCN(S(=O)(=O)c3cnc[nH]3)C2)c1 (stereo not given)	nt	3	-16	-1	-1	5	nt	-17
Cn1c(COc2ccc([N+](=O)[O-])cc2)nnc1SCC(N)=O	-4	8	nt	-3	3	4	i	-1
O=C(CN(C(=O)c1csnn1)c1ccc(F)c(Cl)c1)NC1CCCC1	-19	-1	-19	10	1	0	nt	-4
Cc1cccc(NC(=S)N2CCC(NC(=O)c3ccco3)CC2)c1	nt	4	-28	0	1	4	i	-7
CCOC(=O)c1c(N)c(C#N)c2n1CCCC2	-21	4	-21	nt	-2	5	i	8

5 entries drawn at random from those above, as already listed:
SMILES	CSC inhib	PABP FP inh	Yeast UUG start	Env fusion inh	MT1-MMP act inh	MT1-MMP act inh RFP	Rce1 inh	eIF4H FP inh	others
Cc1cccc(NC(=S)N2CCC(NC(=O)c3ccco3)CC2)c1	nt	4	-28	0	1	4	i	-7
CC(C)(C)C1CCC(=O)N(CCC#N)CC1 (stereo not given)	-13	6	0	-13	-5	6	i	-8
Cc1ccc(C(=O)ONc2ccc(N=O)cc2)cc1	nt	-6	-58	nt	1	3	i	8
O=C(CN(C(=O)c1csnn1)c1ccc(F)c(Cl)c1)NC1CCCC1	-19	-1	-19	10	1	0	nt	-4
Cn1nc(C(=O)OCc2ccccc2F)c2ccccc2c1=O	2	54	nt	36	-2	-12	i	?	PABP FP inh retest=-3

(further entries)
SMILES	CSC inhib	PABP FP inh	Yeast UUG start	Env fusion inh	MT1-MMP act inh	MT1-MMP act inh RFP	Rce1 inh	eIF4H FP inh	others
O=C(NC1CCCCC1)NC1CC2CCC(C1)N2C(=S)NCc1ccco1 (stereo not given)	8	5	-5	nt	-1	0	i	-6
CCOc1ccccc1N1CCN(C(=O)c2cc3c(C)cc(C)cc3[nH]2)CC1	nt	8	-6	-150	1	-3	i	-6
COc1ccc(NC(=O)CN2CCC3(O)CCCCC3C2c2cc(OC)ccc2OC)cc1 (stereo not given)	-13	-2	-2	nt	0	0	i	-11
Cc1cc(NC(=O)Nc2ccccc2Cl)no1	1	-10	-6	-3	-4	-1	i	-6
CC(C)(C)c1ccc(OCCCN2CCCC2)cc1	34	9	-19	11	1	4	i	-2
COc1ccc(NS(=O)(=O)c2csc(C(=O)N3CCCC3)c2)cc1	-5	-7	nt	-8	3	1	i	-8
CCOc1cc(C(=O)N2CCN(c3ccccn3)CC2)cc(OCC)c1OCC	-7	-4	-2	10	-3	-1	i	11
Cc1nn(-c2ccc3nnc(Br)n3n2)c(C)c1Br	nt	-4	nt	nt	nt	nt	i	-1
CCn1c(SC(C)C)nnc1C1CCN(S(=O)(=O)c2ccc(OC)cc2)CC1	-9	1	-5	4	5	2	i	3
CCOC(=O)C1=CCN(S(=O)(=O)c2ccccc2C)C1c1ccc(Br)cc1 (stereo not given)	nt	nt	-4	38	5	-2	nt	nt
O=C(Nc1cccc(C(F)(F)F)c1)c1cc2ncc(Br)cn2n1	-3	1	-14	nt	-3	5	nt	2
CC1=NNC(=O)C1CCC(=O)N/N=C/c1ccc(C)cc1 (stereo not given)	9	0	nt	3	nt	nt	i	-3
O=C([C@H](Cc1ccccc1)N1C(=O)c2ccccc2C1=O)N1CCOCC1	7	-1	0	-10	0	2	i	-5
O=C1C2C3c4ccccc4C(c4ccccc43)[C@@H]2C(=O)N1c1nc(-c2ccccc2)cs1 (stereo not given in full)	7	-5	2	nt	-3	-1	i	4
O=C1COC(c2ccccc2)C2CCCCN12 (stereo not given)	-1	0	-12	nt	-14	0	i	-1
CC(=O)c1c(C)nn(C(=O)N2CCOCC2)c1C	-3	-1	-10	nt	0	4	i	-7
O=c1/c(=C/c2ccccn2)sc2n1CN(c1ccccc1)CN=2	-5	-4	-1	28	1	-2	i	-5
CN(CC(=O)NCC1COc2ccccc2O1)S(=O)(=O)c1ccc(Cl)cc1 (stereo not given)	-10	nt	-14	-13	7	0	nt	nt
Cc1ccc(C)c(Cn2nnc3c(=O)[nH]c(C4CCCN(S(=O)(=O)Cc5ccccc5)C4)nc32)c1 (stereo not given)	nt	2	-8	-7	-5	-4	i	4
Cc1ccc(C(=O)OCC(=O)Nc2ccc(C)c(S(=O)(=O)N3CCCCC3)c2)o1	nt	nt	-14	6	1	-1	nt	nt
C[C@H]1[C@H](C)CC[C@]2(C)CC[C@]3(C)C(=CC(=O)C4[C@@]5(C)CC[C@H](O)C(C)(C)C5CC[C@]43C)[C@H]12 (stereo not given in full)	98*	nt	-13	3	-4	-3	nt	nt
CC(C)NC(=O)COC(=O)c1ccc(S(=O)(=O)N2CCCC2)cc1	-7	0	nt	25	0	8	i	-2
O=S(=O)(Nc1cccc(-n2cnnn2)c1)c1cc(Cl)ccc1Cl	21	-2	-14	-7	0	0	i	0
Cc1ccccc1-n1c(=O)cc(NCc2ccc3c(c2)OCO3)[nH]c1=O	11	-2	9	-15	4	0	i	11
COc1ccc(OC)c(NC(=O)COC(=O)/C=C/c2c(C)nn(C3CCS(=O)(=O)C3)c2Cl)c1 (stereo not given)	10	8	4	nt	1	-9	i	-1
O=C(Nc1cccc2c1CCCC2)c1cc(C2CCCCN2S(=O)(=O)c2cccs2)on1 (stereo not given)	nt	nt	-20	0	0	-2	nt	nt
COc1ccc(/C=C/C(=O)c2cc3c(cc2N)OCO3)cc1	19	-4	nt	-29	5	4	i	9
